Rango-impB inh: qHTS Assay for Inhibitors of Rango (Ran-regulated importin-beta cargo) - Importin beta complex formation; Importin subunit beta-1 (Homo sapiens), Q14974; Rango CFP/YFP FRET sensor + importin beta, 45 min; Potency, µM (titrated, usually from 92.2 µM), inactives show at the top dose inhibition of complex formation; 340,000 tested, 0.031% active; AID 540263, 2011; active = rising FRET ratio curve, often small or poorly fitted; inconclusive = mostly compound fluorescence or quenching in the first reads; inactive = flat curves in all reads;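 also: potency is read from the fitted curve at half-maximal effect; 0% = DMSO wells and 100% = buffer wells lacking importin beta; nearly all actives have a fitted effect of over 15% in size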
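FRET biosensor Rango (snurportin 1 IBB between N-terminal EYFP and C-terminal Cerulean), 50 nM in PBS/1 mM DTT/0.02% Tween-20/0.1% BSA, preincubated 5 min RT with compound; 0.125 microM importin beta added, 45 min RT, CFP/YFP FRET ratio read.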
Rango release inh: qHTS Assay for Inhibitors of RanGTP induced Rango (Ran-regulated importin-beta cargo) - Importin beta complex dissociation | Snurportin-1 (Homo sapiens) + GTP-binding nuclear protein Ran (Homo sapiens) + Importin … | Biochemical FRET Rango-importin beta, RanGTP-induced dissociation | Potency, µM (series often up to 46.1 µM), inactives show at the highest dose activity change, negative = inhibition | 340,000 tested, 0.071% active; active means falling FRET ratio curve, often poorly fitted, with flat reads before Ran was added; inconclusive means other falling curves, or compound fluorescence or quenching; inactive means flat or rising ratio curve;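 also: potency is read from the fitted curve at half-maximal effect; % of control where 0% means no effect; nearly all actives have a fitted effect of over 45% in size; -100% = wells without RanGTP and RCC1; the record marks most hits as doubtful in a second field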
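FRET read at 45 min, room temperature: inhibitors block the CFP/YFP signal rise when RanGTP (0.6 uM Ran, 2 mM GTP, 0.2 uM RCC1) frees Rango (0.1 uM) from importin beta (0.25 uM). Pre-read after 5 min compound exposure flags interference.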
GLA inh pH 4.5: qHTS Assay for Inhibitors of Human alpha-Galactosidase at pH 4.5; Alpha-galactosidase A (Homo sapiens), P06280; purified enzyme, 4-MU-alpha-Gal fluorescence, pH 4.5; activity change, negative = inhibition, % at 105 µM; 230,000 tested, under 10 active; AID 1467, 2008; inconclusive = small, poorly fitted or top-dose-only inhibition, or a rising curve; inactive = flat fitted curve, though single readings scatter; no compound was filed as active;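 also: 0% = full activity with enzyme and -100% = basal without enzyme; dose as in the result columns while the protocol names 77 µM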
Target sequence (P06280 whole entry, looked up): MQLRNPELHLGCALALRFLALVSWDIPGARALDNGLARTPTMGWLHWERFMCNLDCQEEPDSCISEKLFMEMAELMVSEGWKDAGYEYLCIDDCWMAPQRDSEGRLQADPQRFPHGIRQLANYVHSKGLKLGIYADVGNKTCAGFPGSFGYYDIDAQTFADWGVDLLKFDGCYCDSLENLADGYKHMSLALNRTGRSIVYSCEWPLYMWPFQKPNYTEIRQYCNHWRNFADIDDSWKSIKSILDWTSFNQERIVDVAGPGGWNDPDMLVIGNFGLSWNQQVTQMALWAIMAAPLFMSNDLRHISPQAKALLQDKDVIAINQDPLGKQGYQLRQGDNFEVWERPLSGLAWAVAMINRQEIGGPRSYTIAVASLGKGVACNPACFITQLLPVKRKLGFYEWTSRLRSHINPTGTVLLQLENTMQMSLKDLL
miR-21 reporter: qHTS Assay for Modulators of miRNAs and/orActivators of miR-21. HeLa miR-21 FLuc reporter, luciferase, 48 h. Potency, µM (doses to about 38.3 µM), without a hit: top-dose reporter change, positive = more light. 340,000 tested, under 10 active; active = well fitted rising curve with a large enough effect; inconclusive = small, poorly fitted or top-dose-only effect; inactive = no such curve, though single readings can be large or run the other way;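 also: % of control where 0% means no effect; miR-21 action dims this reporter so a rising signal means less miR-21 action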
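HeLa cells endogenously expressing miR-21, stably carrying CMV-driven firefly luciferase with a downstream miR-21 binding site, 2000 cells/well. Titrations up to approximately 40 uM, 48 hours; luciferase luminescence read.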
* hit, by the source's call; ? = inconclusive; . = not tested or not shown. The list is partial, so the mix of outcomes need not match the whole.

Rango-impB inh	Rango release inh	GLA inh pH 4.5	miR-21 reporter	structure
2.8%	3%	.	1%	Cc1ccc2[nH]c(C(=O)N3CCCC(Nc4ccc(F)cc4)C3)cc2c1 (configuration not stated)
-0.6%	-13%	-7	-60%	O=C(c1cc2ccccc2o1)c1cccs1
1.4%	-9%	13	-3%	Cc1cc(Nc2ccccc2)n(CCO)n1
3.2%	-4%	.	.	COc1ccc(OC(=O)N2C/C(=C/c3ccccc3)C(=O)/C(=C\c3ccccc3)C2)cc1
0.2%	5%	.	.	CC(O)(c1cccs1)C(C(=O)O)c1ccccc1 (configuration not stated)
-2.4%	0%	.	.	O=C(CCNC(=O)c1ccc([N+](=O)[O-])cc1)NCC1COc2ccccc2O1 (configuration not stated)
-4.2%	24%	10	-4%	C=CCn1c(=O)c(C(=O)OCC)c(O)c2ccccc21
0.2%	13%	-2	-1%	CCC1CCCCN1CCCNC(=O)CC1Oc2ccccc2NC1=O (configuration not stated)
-2.8%	-24%	.	.	C#CCNC(=O)C1=C[C@@H](C)[C@H](CCCO)[C@@H](OCC)O1
2.7%	0%	.	-9%	Cc1cc(OC(C)C(=O)NCC2CCC(C(=O)O)CC2)c2c(C)c(Cc3ccccc3)c(=O)oc2c1 (configuration not stated)
0.4%	2%	3	-38%	Cn1nnnc1SCC(=O)c1ccc2c(c1)OCCO2
0.9%	0%	-4	-9%	CCCCOc1nc(N)nc(-c2ccccc2)n1
?	?	?	12%	CCCCCOC(=O)c1c(N)n(CCOC)c2nc3ccccc3nc12
-1.8%	-13%	.	3%	CN(Cc1ccon1)C(=O)C1CCN(C2CCN(CCCc3ccccc3)CC2)CC1
2.4%	11%	.	-8%	CN(Cc1ccccc1OCCO)CC1CCCN(CCc2ccc(Cl)cc2)C1 (configuration not stated)
0.8%	11%	1	0%	CC(=O)c1nc(N2C(=O)CC(Cc3ccccc3)C2=O)sc1C (configuration not stated)
7.0%	16%	5	-4%	CCC1Oc2ccccc2N(CC(=O)NCCN2CCc3ccccc3C2)C1=O (configuration not stated)
-2.4%	-2%	.	1%	C/C=C(\C)C(=O)N1CCC(C(=O)c2ccccc2)CC1
-2.8%	-22%	.	.	COc1ccc(SC[C@H](C)CN2CC[C@H](C)CCC2=O)cc1
-2.8%	-3%	7	-49%	CCOCCCNC(=S)NCCc1ccccc1
?	15%	.	.	Cc1cccc(C2c3c(n(C)c(=O)n(C)c3=O)N=C3c4ccccc4C(=O)C32)c1 (configuration not stated)
0.6%	-20%	.	15%	COc1cccc(/C=N/Nc2cc(N3CCOCC3)ncn2)c1O
-1.7%	-4%	3	-1%	COC(=O)c1cccnc1N1CCN(c2ccccc2F)CC1
5.6%	-12%	8	4%	O=P(c1ccccc1)(c1ccccc1)N(c1ccccc1)c1ccccc1
-2.9%	-15%	.	-9%	Cn1nc(C(=O)N2CCC(C(N)=O)CC2)c2c1-c1ccccc1SC2
-0.1%	0%	.	-57%	Cc1ccccc1C(=O)O/N=C(\N)Cc1cccs1
6.4%	-8%	-3	-41%	O=C(c1cccc(-c2nnc(-c3ccccc3)o2)c1)N1CCCCCC1
-3.6%	-3%	-5	-3%	CC(CCc1ccccc1)NC(=O)CSc1nc(N)cc(N)n1 (configuration not stated)
0.0%	-8%	-6	-18%	O=[N+]([O-])c1cccc(-c2nnc(C3CC3)o2)c1
0.4%	0%	-3	-4%	COc1ccccc1-n1nnnc1SCC(=O)NC1CCCC1
0.9%	-7%	.	.	CC1CCCC(=NNC(=O)C2COc3ccccc3O2)C1 (configuration not stated)
-0.4%	?	-6	-3%	COc1cc(NC(=O)N2CCOCC2)cc(OC)c1
5.2%	-7%	-11	-18%	N#Cc1cccc(NC(=O)CCC2CCCC2)c1
-1.0%	-3%	.	.	CC(Nc1cccc(C(=O)NC2CC2)c1)c1nnc(-c2ccccc2)o1 (configuration not stated)
-0.8%	-4%	2	-44%	Cc1cc(O)c(NC(=O)c2ccc(C)c([N+](=O)[O-])c2)cc1C
0.5%	1%	.	0%	COc1cc(CN2CCC(n3nccc3NC(=O)CCCc3ccccc3)CC2)ccc1O
4.6%	2%	.	-2%	CC(C)C[C@H](NC(=O)N1CCn2c1nc1ccccc12)C(=O)N[C@H](Cc1ccccc1)C(=O)O
3.8%	3%	-15	13%	c1ccc(-c2oc3ncnc(NCCN4CCOCC4)c3c2-c2ccccc2)cc1
1.1%	10%	-1	0%	CN1C(=O)c2ccc(NC(=O)c3cccc(N4C(=O)CCC4=O)c3)cc2C1=O
0.9%	2%	0	-1%	O=C(CN1C(=O)C2C3CCC(C3)C2C1=O)NCc1ccco1 (configuration not stated)
0.3%	8%	.	.	COc1cccc(C=NNC(=S)NN=Cc2cccc(OC)c2OC)c1OC
0.3%	14%	-3	3%	CCOC(=O)c1sc(NS(=O)(=O)c2ccc(F)cc2)nc1C
5.0%	10%	0	0%	Cc1onc(-c2ccccc2)c1C(=O)N(Cc1ccccn1)Cc1ccccn1
0.0%	14%	-8	-3%	C/C(=N\O)C(C)(C)NC(=O)Nc1ccc(Cl)cc1
5.6%	0%	.	.	C[C@H](NS(=O)(=O)c1c(Cl)cccc1Cl)C(=O)NNC(=O)COc1ccccc1F
-0.1%	-7%	.	.	COc1cccc(/C=N/NC(=O)c2ccc(-n3cnnn3)cc2)c1
-2.6%	0%	.	-2%	CCc1nnc(NC(=O)c2cc(C)oc2C)s1
?	?	-4	-5%	COC(=O)C1=C(CSc2nc3c(cc2C#N)CN(C)CC3)OC(N)=C(C#N)C1c1ccccc1F (configuration not stated)
1.1%	-11%	-6	23%	Cc1nn(C)c(C)c1S(=O)(=O)N1CCCC(C(=O)N2CCN(c3ccc(Cl)cc3)CC2)C1 (configuration not stated)
1.9%	-4%	-9	-6%	CC(=O)N(CCCN(C)C)c1nc2ccc(C)cc2s1
-0.5%	-4%	.	.	CCOc1cc(C(c2c(O)nc(SC)[nH]c2=O)c2c(O)nc(SC)[nH]c2=O)ccc1O
?	7%	-1	-12%	CCc1nnc(NS(=O)(=O)c2ccc(NS(=O)(=O)c3ccccc3)cc2)s1
0.2%	2%	-9	-34%	Nn1c(SCC(=O)Nc2ccc(F)cc2F)nnc1C1CCCCC1
-1.4%	-9%	-1	-32%	CCOCCn1cnc2sc(C(=O)NCC(=O)OCC)c(C)c2c1=O
3.0%	3%	-2	-1%	NC1=C(O)C(=O)C(c2ccccc2)O1 (configuration not stated)
-0.2%	0%	.	.	O=C(CN1C(=O)NC2(CCCC2)C1=O)OCCOc1ccc(Cl)cc1

New compounds follow
Rango-impB inh	Rango release inh	GLA inh pH 4.5	miR-21 reporter	structure
?	?	-3	-32%	CCC(=O)Oc1ccc2c(c1)O/C(=C\c1ccco1)C2=O
-2.1%	-7%	7	-2%	O=C(O)Cn1nc(C(F)(F)F)c2c1CCC2
1.0%	40%	2	1%	CCO/N=C(\C)c1c(O)c2ccccc2n(C)c1=O
1.5%	5%	0	-9%	CCOc1ccc(-c2cnc(SCC(N)=O)nc2N)cc1
3.5%	8%	.	-3%	O=C(NCc1ccccc1)N1CCCC1
-0.6%	0%	5	-11%	Cc1ccn2c(C(=O)CSc3ccccc3Cl)c(C)nc2c1
2.1%	3%	.	-15%	Cc1ccccc1C(=O)NNC(=O)c1cccc(Br)c1
3.8%	-2%	1	-1%	CN(Cc1ccccc1)c1nc2c(c(=O)n(C)c(=O)n2C)n1CCSc1ncccn1
0.7%	2%	3	-1%	Cc1ccc(-c2cccc(C3CC=CC4C3C(=O)N(Cc3ccccc3)C4c3ccc4ccccc4c3)c2)cc1 (configuration not stated)
0.2%	-9%	1	-9%	COC(=O)CN1C(=O)C2(C(C#N)=C(N)Oc3c2c(C)nn3-c2ccccc2)c2ccccc21 (configuration not stated)
6.9%	7%	-4	1%	COc1ccc(NS(=O)(=O)c2ccc(N3CCOCC3)c(NC(=O)c3ccco3)c2)cc1
-1.5%	0%	.	.	O=C(COC(=O)c1cc(=O)c2ccccc2o1)Nc1c(F)c(F)c(F)c(F)c1F
-0.6%	-12%	-5	-13%	Cc1cc(NC(=O)C23CC4CC(CC(C4)C2)C3)n[nH]1
-4.6%	-18%	.	-7%	C/C(=N/NC(=O)c1sc(NS(=O)(=O)c2ccccc2)nc1C)c1sc(N)nc1C
0.6%	-10%	1	1%	Cn1cccc1/C=N/N1CCN(Cc2cccc3ccccc23)CC1
6.6%	0%	13	-14%	CCc1ccc(C(=O)CSc2nc3cc(S(=O)(=O)N4CCOCC4)ccc3n2CC)cc1
-0.5%	2%	.	6%	COc1ccc(CCNC(=O)CN(c2cc(OC)ccc2OC)S(=O)(=O)c2ccccc2)cc1
1.4%	5%	.	-8%	COc1ccc(S(=O)(=O)N2CCOC2CNC(=O)C(=O)NCc2ccccn2)cc1C (configuration not stated)
1.5%	6%	-12	11%	O=C(COc1ccc(S(=O)(=O)NC2CCCCC2)cc1)Nc1ccc2c(c1)OCCO2
-0.4%	6%	3	0%	Cc1cccc(C)c1OC(=O)CCN1C(=O)C2C3C=CC(C4CC34)C2C1=O (configuration not stated)
-1.4%	2%	.	-1%	COC(=O)[C@H](Cc1ccccc1)NC(=O)NCCc1ccc(OC)cc1
?	-7%	4	-21%	O=c1cccccc1NCc1ccccc1
-8.1%	-18%	.	.	COc1cc(/C=C(\C#N)C(=O)NCC2CCCO2)ccc1OC(=O)c1ccco1 (configuration not stated)
0.1%	4%	5	-1%	CCOC(=O)N1CCN(C(=O)c2ccc3c(=O)n(-c4ccc(F)cc4)c(=S)[nH]c3c2)CC1

Four entries picked at random from the list so far:
Rango-impB inh	Rango release inh	GLA inh pH 4.5	miR-21 reporter	structure
-1.4%	2%	.	-1%	COC(=O)[C@H](Cc1ccccc1)NC(=O)NCCc1ccc(OC)cc1
-8.1%	-18%	.	.	COc1cc(/C=C(\C#N)C(=O)NCC2CCCO2)ccc1OC(=O)c1ccco1 (configuration not stated)
0.1%	4%	5	-1%	CCOC(=O)N1CCN(C(=O)c2ccc3c(=O)n(-c4ccc(F)cc4)c(=S)[nH]c3c2)CC1
1.4%	5%	.	-8%	COc1ccc(S(=O)(=O)N2CCOC2CNC(=O)C(=O)NCc2ccccn2)cc1C (configuration not stated)

The results go on.
Rango-impB inh	Rango release inh	GLA inh pH 4.5	miR-21 reporter	structure
-4.9%	-10%	0	-6%	CCOC(=O)c1[nH]c(C)c(C(=O)OC(C)C(=O)Nc2ncc(Cl)cc2Cl)c1C (configuration not stated)
0.5%	-9%	-5	-4%	Cc1cccc(N2CC34C=CC(O3)C(C(=O)O)C4C2=O)c1 (configuration not stated)
-0.8%	17%	4	-8%	COc1cc(CCC(=O)OCc2nnc(-c3ccccc3)o2)cc(OC)c1OC
3.2%	0%	.	.	COCCN(C(=O)CSc1nn(-c2ccc(F)cc2)c(=S)s1)c1c(N)n(CC(C)C)c(=O)[nH]c1=O
0.2%	1%	.	-4%	CC(C)(C)C(=O)Nc1ccccc1-c1nc2ccccc2[nH]c1=O
?	?	.	-5%	COc1ccc(/C=C2\Oc3cc(OCC(=O)N4CCC(C(=O)O)CC4)ccc3C2=O)c(OC)c1
2.1%	?	-2	0%	COC(=O)C1NN=C(C(=O)c2ccc(Cl)cc2)C1c1ccc(OC)cc1 (configuration not stated)
-8.9%	-27%	.	0%	O=C(Cc1ccc(Cl)cc1Cl)OCC(=O)N1CCCCC1
-3.4%	-5%	.	-11%	Fc1ccc(/C=N/n2c(COc3ccccc3)n[nH]c2=S)cc1
-3.0%	7%	-8	-4%	CCOc1ccc(-c2nn3c(-c4ccccc4)nnc3s2)cc1
